Compound activity (PubChem BioAssay)
T cruzi repl: T. cruzi replication inhibition; T. cruzi beta-gal in NIH3T3, luminescence, 90 h; inhibition, % (test concentration not listed); hit rate 1.4% among 300,000; AID 1885;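 active = mean inhibition across valid replicates above about 55%, limit read from the data; inconclusive = mean below that limit but half or more replicates reach it; inactive = mean below it, under half of replicates reach it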;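 note: signal also drops with host cell toxicity which is not excluded here; 0% = plate median of DMSO wells and 100% = zero luminescence signal; higher percent means less beta-gal luminescence so fewer parasites; stock transfer was 50 nL into about 50 µL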
A1 inh: inhibitors of the anti-apoptotic protein A1, read as caspase activation. MEF A1-2A-BIM cells, Caspase-Glo 3/7 luminescence, 3 h; percent of clofoctol response, vehicle zero. caspase activation, % (no concentration beside the values). hit rate 0.066% among 330,000. AID 2462;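 active = over half of replicate activation scores above 10%, or exactly half above 10 with the replicate mean above 10; inconclusive = replicate mean below 10 yet half the replicates above 10; inactive = over half of replicates below 10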;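 note: wells of about 30 µL received 50 nL stock; many hits fall short of the cut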
Beta apoptosis: blocks beta cell apoptosis | hit rate 0.8% among 300,000 | protection from apoptosis, % (no concentration beside the values) | INS-1E cytokine-induced death, ATP luminescence, 48 h; percent of positive-control rescue, neutral wells zero;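 active = all replicates at 75% or more, or half of them and the mean; inconclusive = half reach 75% but not the mean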;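 note: 0% = cytokine-treated negative control wells and 100% = positive control rescue; higher means more ATP so stronger rescue from cytokine killing; wells of about 40 µL received 100 nL stock; the first replicate is given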
Calb FLC: affects C. albicans growth with fluconazole. C. albicans CaCi-2 (fluconazole-resistant clinical isolate) + fluconazole, Alamar Blue growth, 48 h. growth inhibition, % (no concentration beside the values). AID 1979. hit rate 0.57% among 300,000;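 active = most replicates above 75%; inconclusive = exactly half above 75%; inactive = most below 75%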;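 note: all wells also contain fluconazole at 8 µg/ml as a sub-toxic cotreatment; 0% = median of DMSO wells and 100% = median of geldanamycin control wells; wells of about 8 µL received 7.5 nL stock; the first replicate is given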
Vif TR-FRET: inhibitors of Vif binding to APOBEC3G peptide, primary screen, biochemical, TR-FRET, GST-Vif 1-94, biotin-A3G peptide, dose response retest (AID 1117319). TR-FRET GST-Vif / biotin-A3G peptide binding; higher % means a stronger effect; test concentration not given here; strong numbers were not always called active. inhibition, %; hits with a dose series show IC50 in µM. hit rate 0.57% among 260,000;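 active = above the screen mean plus three standard deviations and confirmed in dose response; inconclusive = results disagree or hit not tested in dose response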;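 note: Vif residues 1-94 fused to GST binding biotinylated APOBEC3G peptide 110-148; 0% = full assay without inhibitor and 100% = GST in place of GST-Vif; retest series ran down from 100 µM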
AF4-AF9 inh: blocks AF4 peptide binding to human AF9; AID 651704; inhibition, % at 10 µM; P42568; hit rate 0.47% among 350,000; AlphaScreen, biotin-AF4 peptide binding to FLAG-AF9;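 active = every replicate reaching a set inhibition limit, whatever the replicate mean, cut at about 25% in these data; inconclusive = mean inhibition reaches that limit but some replicates miss it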;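 note: 0% = plate neutral control median and 100% = total signal loss; the record names both 10 and 1 µM as test concentration; the first replicate is given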
Target sequence (P42568 whole entry, looked up): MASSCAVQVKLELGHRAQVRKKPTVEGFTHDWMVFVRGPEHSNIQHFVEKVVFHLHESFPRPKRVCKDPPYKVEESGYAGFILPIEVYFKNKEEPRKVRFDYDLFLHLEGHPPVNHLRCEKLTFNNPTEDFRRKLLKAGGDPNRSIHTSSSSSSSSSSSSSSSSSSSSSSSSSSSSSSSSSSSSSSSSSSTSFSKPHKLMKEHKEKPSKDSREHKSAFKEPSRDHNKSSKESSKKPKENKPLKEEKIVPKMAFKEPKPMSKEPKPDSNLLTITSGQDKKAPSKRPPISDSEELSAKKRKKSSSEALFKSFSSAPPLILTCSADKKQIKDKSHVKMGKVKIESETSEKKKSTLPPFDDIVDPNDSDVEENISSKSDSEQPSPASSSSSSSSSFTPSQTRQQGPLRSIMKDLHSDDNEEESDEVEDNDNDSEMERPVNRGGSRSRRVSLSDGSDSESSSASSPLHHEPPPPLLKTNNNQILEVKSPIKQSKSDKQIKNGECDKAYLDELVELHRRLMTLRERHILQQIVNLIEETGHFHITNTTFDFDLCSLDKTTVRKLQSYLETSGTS
Ecoli rRNA inh: inhibits bacterial ribosomal RNA function over humanized ribosomes; E. coli WT GFP vs humanized-ribosome RFP mutants, fluorescence, 24 h; active compounds read low; DMSO median 0, no signal -100; GFP signal change (wild-type ribosome), % (no concentration beside the values); hit rate 1.6% among 350,000;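 active = significant combined selectivity score with lowered wild-type GFP, culture density cut under 30%, mutant RFP and density less affected; inactive = any of these conditions unmet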; note: one replicate is shown; some compounds called inactive have numbers as strong as hits
RanGTP-Impb inh: inhibitors of RanGTP-importin-beta interaction, primary screen, biochemical, FRET, CFP-Ran, YFP-importin-beta, homogeneous; cell-free CFP-Ran/YFP-importin-beta FRET ratio; inhibition, % (no concentration beside the values); hit rate 1.1% among 300,000;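 active = most replicates above 15%; inconclusive = exactly half above 15%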;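 note: 0% = DMSO wells and 100% = Ran loaded with GDP instead of GTP; wells of about 40 µL received 100 nL stock; the first replicate is given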
Ecoli rRNA inh OD600: second read-out of Ecoli rRNA inh, no call of its own (marks repeat the call); OD600 change, %; measured here: OD600 growth;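 optical density of the mix in the first replicate; 0 = DMSO median and -100 = no signal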
Ecoli rRNA inh RFP: second read-out of Ecoli rRNA inh, no call of its own (marks repeat the call); RFP signal change, %; measured here: RFP humanized mutant strains;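 first replicate; 0 = DMSO median and -100 = no signal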
* marks the source's active call; other numbers are inactive results.

`O=C(Cc1ccccc1F)NCC(c1ccco1)N1CCCCC1` (stereo not given) gave T cruzi repl -6, A1 inh -0.2, Beta apoptosis -7, Calb FLC -9, Vif TR-FRET -7%, AF4-AF9 inh -0.9, Ecoli rRNA inh 14, RanGTP-Impb inh 3.3, Ecoli rRNA inh OD600 11 and Ecoli rRNA inh RFP 7.2.
Screening C/C=C/C=C/C(=O)N1CC2(CC(c3cccc(NC(=O)/C=C/C)c3)=NO2)C[C@@H]1C(N)=O (stereo not given in full) returned T cruzi repl -11, A1 inh -1.6, Beta apoptosis -3, Calb FLC -2, Vif TR-FRET 21%, AF4-AF9 inh -12, Ecoli rRNA inh 3, RanGTP-Impb inh -2.1, Ecoli rRNA inh OD600 7 and Ecoli rRNA inh RFP 0.2.
For Cc1ccc(S(C)(=O)=N/C=C2\C(=O)c3sccc3N(C)S2(=O)=O)cc1 (stereo not given) the results were T cruzi repl -21, A1 inh -0.4, Beta apoptosis -4, Calb FLC 7, Vif TR-FRET -10%, AF4-AF9 inh -1.5, Ecoli rRNA inh 2, RanGTP-Impb inh 9.8, Ecoli rRNA inh OD600 4 and Ecoli rRNA inh RFP 6.2.
For CCOC(=O)/C(N)=C/c1ncc(C(F)(F)F)cc1Cl the results were T cruzi repl -2, A1 inh inconclusive, Beta apoptosis -1, Calb FLC 15, Vif TR-FRET 26% and RanGTP-Impb inh 0.2.
Cc1cccc(-n2ncc3c(N(C)C4CCCCC4)ncnc32)c1 was read as T cruzi repl 27, A1 inh -6.1, Calb FLC 3, AF4-AF9 inh -16, Ecoli rRNA inh -13, RanGTP-Impb inh 5.8, Ecoli rRNA inh OD600 -26 and Ecoli rRNA inh RFP 2.2.
CCCCC(=O)Nc1ccc(C(=O)NNC(=O)CCCOc2ccc(Cl)cc2Cl)cc1 was read as T cruzi repl -9, A1 inh -0.1, Beta apoptosis -6, Calb FLC -7, AF4-AF9 inh 2.1, Ecoli rRNA inh 2, RanGTP-Impb inh 2.0, Ecoli rRNA inh OD600 -1 and Ecoli rRNA inh RFP 2.0.
COc1cccc(C(=O)NC2CCN(CC(=O)Nc3ccccc3Cl)CC2)c1 was read as T cruzi repl 11, A1 inh -0.8, Beta apoptosis -3, Calb FLC -5, Vif TR-FRET -4%, AF4-AF9 inh 1.3, Ecoli rRNA inh -12, RanGTP-Impb inh -8.8, Ecoli rRNA inh OD600 -6 and Ecoli rRNA inh RFP -3.3.
Screening CSCCC(NC(=O)c1ccc([N+](=O)[O-])cc1Cl)C(=O)OC1CCCCC1=O (stereo not given) returned T cruzi repl -3, A1 inh -0.2, Beta apoptosis -7, Calb FLC -7, AF4-AF9 inh 0.2, Ecoli rRNA inh 16, RanGTP-Impb inh 4.8, Ecoli rRNA inh OD600 7 and Ecoli rRNA inh RFP -0.9.
Cc1cc(C(F)(F)F)c2c(N)c(C(=O)NC3CC3)sc2n1 was read as T cruzi repl 0, A1 inh 0.0, Calb FLC 3, Vif TR-FRET 3%, AF4-AF9 inh 1.3, Ecoli rRNA inh -10, RanGTP-Impb inh 3.6, Ecoli rRNA inh OD600 -15 and Ecoli rRNA inh RFP -4.9.
NC(=O)c1c(NC(=O)c2ccccc2)sc2c1CCCC2 was read as T cruzi repl 12, A1 inh -3.1, Beta apoptosis 6, Calb FLC 11, AF4-AF9 inh 0.3, Ecoli rRNA inh 6, RanGTP-Impb inh 3.8, Ecoli rRNA inh OD600 16 and Ecoli rRNA inh RFP 5.3.
`COc1ccc(NC(=O)C(=O)NCCCn2ccnc2)cc1` gave T cruzi repl 3, A1 inh -0.6, Beta apoptosis -3, Calb FLC -22, Vif TR-FRET -1%, AF4-AF9 inh -1.8, Ecoli rRNA inh 12, RanGTP-Impb inh -6.9, Ecoli rRNA inh OD600 9 and Ecoli rRNA inh RFP -3.9.
CCN(CC(=O)Nc1c(F)cccc1F)C(=O)c1csc2c1CCCC2 was read as T cruzi repl -5, A1 inh 0.5, Beta apoptosis 1, Vif TR-FRET -10%, AF4-AF9 inh -1.2, Ecoli rRNA inh 5, RanGTP-Impb inh 6.6, Ecoli rRNA inh OD600 0 and Ecoli rRNA inh RFP 0.7.
`O=C(CCc1ccc(S(=O)(=O)N2CCOCC2)cc1)OCC(=O)c1ccc(Br)cc1` gave A1 inh -0.4, Beta apoptosis -3, AF4-AF9 inh 4.9, Ecoli rRNA inh 5, Ecoli rRNA inh OD600 11 and Ecoli rRNA inh RFP 1.6.
For Cc1ccc(NC(=O)CN2CCCC2c2cccs2)cc1S(=O)(=O)N1CCCCC1 (stereo not given) the results were A1 inh -0.3, Beta apoptosis -4, Vif TR-FRET -1%, AF4-AF9 inh 2.9, Ecoli rRNA inh -12, Ecoli rRNA inh OD600 -21 and Ecoli rRNA inh RFP 6.0.
`CN1C(=O)c2ccccc2Sc2ccc(C(=O)O)cc21` gave T cruzi repl -5, A1 inh -0.2, Beta apoptosis -5, Calb FLC -2, Vif TR-FRET -1%, AF4-AF9 inh -2.5, Ecoli rRNA inh 1, RanGTP-Impb inh -0.1, Ecoli rRNA inh OD600 6 and Ecoli rRNA inh RFP -2.3.
CCC(=O)c1ccc(OCC(=O)OCC(=O)NCCCc2ccccc2)cc1 was read as T cruzi repl 2, A1 inh 1.2, Beta apoptosis 1, Calb FLC -4, Vif TR-FRET 1%, AF4-AF9 inh 0.4, Ecoli rRNA inh 6, Ecoli rRNA inh OD600 7 and Ecoli rRNA inh RFP 0.3.
CC(C)n1cc(NC(=O)c2cc(-c3ccccc3)on2)cn1 was read as T cruzi repl -51, A1 inh -1.2, Beta apoptosis 19, Calb FLC -2, Vif TR-FRET -6% and RanGTP-Impb inh 2.2.
For CCCCCN1CC(O)=C(c2ccccc2)C1=N the results were T cruzi repl -9, A1 inh -0.5, Beta apoptosis 0, Calb FLC 17, Vif TR-FRET 1% and RanGTP-Impb inh -1.8.
For O=C(O)/C=C/C(=O)N1CCc2ccccc21 the results were T cruzi repl -8, A1 inh -0.6, Beta apoptosis -8, Calb FLC -21, Vif TR-FRET -11%, AF4-AF9 inh 0.7, Ecoli rRNA inh 5, RanGTP-Impb inh 3.1, Ecoli rRNA inh OD600 5 and Ecoli rRNA inh RFP 5.6.
`Cn1c(CCN2CCCC2)nc2cc(NS(=O)(=O)c3ccccc3)ccc21` gave T cruzi repl 9, A1 inh -0.6, Beta apoptosis 7, Calb FLC -2, Vif TR-FRET -5%, AF4-AF9 inh 2.8, Ecoli rRNA inh -5, RanGTP-Impb inh 1.5, Ecoli rRNA inh OD600 -11 and Ecoli rRNA inh RFP 3.6.
Screening Cc1ccc(N(C(=O)C(F)(F)F)C(C(=O)NC2CCCCC2)c2cccs2)cc1 (stereo not given) returned T cruzi repl -2, A1 inh 0.2, Calb FLC -3, Vif TR-FRET -4% and RanGTP-Impb inh -1.0.
O=C(c1n[nH]c(=O)c2ccccc12)N1CCN(c2ccccc2)CC1 was read as T cruzi repl 1, A1 inh 0.6, Beta apoptosis -6, Calb FLC -2, Vif TR-FRET 3% and RanGTP-Impb inh inconclusive.
CCOc1ccccc1CNC(=O)C1CCN(c2nc3ccccc3o2)CC1 was read as T cruzi repl 5, A1 inh -0.4, Beta apoptosis -2, Calb FLC -21 and Vif TR-FRET -5%.
CCOC(=O)CCNC(=O)N1CCCC(C(=O)c2cccc(Cl)c2)C1 (stereo not given) was read as T cruzi repl 7, A1 inh 1.3, Beta apoptosis 2, Calb FLC 4, Vif TR-FRET -6%, AF4-AF9 inh -1.9, Ecoli rRNA inh -5, RanGTP-Impb inh 3.0, Ecoli rRNA inh OD600 -10 and Ecoli rRNA inh RFP -0.7.
CC(=O)c1ccc(N2CCN(CC(=O)N(C3CC3)C3CCS(=O)(=O)C3)CC2)c(F)c1 (stereo not given) was read as A1 inh -1.1, Beta apoptosis -2, AF4-AF9 inh 1.4, Ecoli rRNA inh 1, Ecoli rRNA inh OD600 11 and Ecoli rRNA inh RFP -2.2.
CCO/C=C/C(O)(CNC(=O)COc1ccccc1F)C(F)(F)F (stereo not given) was read as T cruzi repl -2, A1 inh 1.5, Beta apoptosis -3, Calb FLC inconclusive, Vif TR-FRET -4% and RanGTP-Impb inh 1.4.
`Cc1ccc(S(=O)(=O)NCCSC(C)(C)C)cc1` gave T cruzi repl 6, A1 inh 0.8, Beta apoptosis -3, Calb FLC -1, Vif TR-FRET 0% and RanGTP-Impb inh 1.0.
Screening COc1ccc(C2/C(=C(/O)c3ccccc3)C(=O)C(=O)N2CCCN2CCOCC2)cc1 (stereo not given) returned T cruzi repl -6, A1 inh -0.3, Calb FLC -2, AF4-AF9 inh -3.4, Ecoli rRNA inh 5, RanGTP-Impb inh 0.9, Ecoli rRNA inh OD600 9 and Ecoli rRNA inh RFP -1.0.
For COc1cccc(Nc2ncc(C(=O)O)c3ccccc23)c1 the results were T cruzi repl -6, A1 inh -1.6, Beta apoptosis 0, Calb FLC 3, Vif TR-FRET -2% and RanGTP-Impb inh 0.7.
`CCOC(=O)C(Cc1ccccc1)NC(C)=O` (stereo not given) gave T cruzi repl -20, A1 inh -0.5, Beta apoptosis -5, Calb FLC -6, Vif TR-FRET 3% and RanGTP-Impb inh 0.0.
CN1CCN(CCCC(=O)c2ccc(F)cc2)CC1 was read as T cruzi repl 20, A1 inh 1.0, Beta apoptosis -6, Calb FLC -2, Vif TR-FRET 4% and RanGTP-Impb inh 1.7.
`O=C(CSCc1ccco1)c1cccs1` gave T cruzi repl -8, A1 inh 0.0, Beta apoptosis -16, Calb FLC -12, Vif TR-FRET 19% and RanGTP-Impb inh 4.9.
For Cc1nc(NN)c2c3c(sc2n1)COC(C)(C)C3 the results were T cruzi repl 3, A1 inh 3.1, Beta apoptosis -5, Calb FLC 3, Vif TR-FRET 2%, AF4-AF9 inh -4.1, Ecoli rRNA inh 9, RanGTP-Impb inh 1.1, Ecoli rRNA inh OD600 11 and Ecoli rRNA inh RFP 1.0.
Screening COCC(C)NC(=O)C1c2ccccc2Oc2ccccc21 (stereo not given) returned T cruzi repl -6, A1 inh 0.8, Beta apoptosis 1, Calb FLC -11, Vif TR-FRET 3%, AF4-AF9 inh 4.6, Ecoli rRNA inh 8, RanGTP-Impb inh 6.4, Ecoli rRNA inh OD600 10 and Ecoli rRNA inh RFP -3.4.

An excerpt; rates above refer to the full screens.
